Bioassay records deposited in PubChem BioAssay by several laboratories.
PABP polyA inh: PABP poly(A) RNA binding inhibitors, primary screen, biochemical, fluorescence polarization, uHTS | Polyadenylate-binding protein 1 (Homo sapiens), P11940 | inhibition, % at 35 µM | hit rate 1% among 290,000;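 active = 50% or more with normal probe brightness, or confirmed in later tests; inconclusive = above 50% with abnormal brightness, or retests that disagree; inactive = below 50% or failed in later tests; about a fifth of its hits are not listed in these tables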;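 also: calls also rest on retests at 20 µM and on dose response follow-up; controls were probe without protein and protein plus probe with vehicle; some compounds called inactive have numbers as strong as hits; many hits fall short of the cut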
Env fusion inh: inhibitors of HIV-1 Env-driven cell-cell fusion, primary screen, HeLa-JRFL effector, CEM21 target cells, luciferase; inhibition, % at 12.3 µM; hit rate 1.1% among 360,000;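 active = mean replicate inhibition score of at least 50 and every replicate individually at or above 50; inconclusive = only one of the two criteria met; inactive = mean below 50 and not all replicates reaching 50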;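 also: 0% = plate neutral controls and 100% = maraviroc near 300 nM; one replicate is shown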
eIF4H FP inh: human eIF4H binding inhibitors, primary screen, translation initiation inhibitor project, biochemical, uHTS, fluorescence polarization; inhibition, % at 35 µM; hit rate 0.94% among 290,000; eIF4H fluorescence polarization binding assay;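 active = 50% or more with normal probe brightness, or confirmed in later tests; inconclusive = above 50% with abnormal brightness, or retests that disagree; inactive = below 50% or failed in later tests; about a fifth of its hits are not listed in these tables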;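 also: calls also rest on retests at 20 µM and on dose response follow-up; 0% = protein and probe with vehicle and 100% = probe without protein; strong numbers were not always called active; many hits fall short of the cut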
Yeast UUG start: modulators of yeast start codon fidelity, primary screen, whole organism, S. cerevisiae, single point, plate reader; activity score, % at 18.7 µM; S. cerevisiae UUG-firefly luciferase reporter, luminescence/redox ratio; hit rate 0.13% among 350,000;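 active = replicate mean at a twofold rise or more, about +100% in these data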;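 also: firefly luciferase made from a UUG start codon reports start codon fidelity; reporter light over untreated wells divided by growth signal over untreated wells; some hits fall short of that in this replicate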
CSC inhib: cancer stem cell viability inhibitors, primary screen, luminescence; cancer stem cell-like cells viability; inhibition, % at 7.5 µM; hit rate 1.1% among 300,000; AID 2717, 2010;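 active = mean at 75% or more and at least half the replicates too; inconclusive = mean and replicates disagree; tested in HMLE shEcad cells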;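 also: 0% = median of negative and 100% = median of positive control wells; the first replicate is given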
MT1-MMP act inh: blockers of MT1-MMP proenzyme processing, primary screen, HT1080 RFP-PRO-GFP cells, GFP/RFP fluorescence; GFP/RFP ratio fluorescence, overnight; percent of plate control window, DMSO zero; GFP/RFP ratio change, % at 20 µM; hit rate 0.061% among 360,000; Matrix metalloproteinase-14 (Homo sapiens), P50281;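 active = GFP/RFP ratio change of at least 30% with cell ATP level not reduced by more than half and red fluorescence within 50% of control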; also: strong numbers were not always called active
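Assay system: HT1080 RFP-PRO-GFP cells | Dosing: 20 µM single dose, 1% DMSO | Incubation: Cells overnight before dosing, compound overnight, 37 °C, 5% CO2 | Evaluation: GFP/RFP fluorescence ratio | Control set: DMSO-only wells and HT1080 RFP-L50D-GFP cell wells as references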
Rce1 inhib: yeast Rce1p protease inhibitors, primary screen, biochemical, fluorescence, cell-free homogeneous. yeast membranes, quenched prenylated peptide cleavage fluorescence. calls only. CAAX prenyl protease 2 (Saccharomyces cerevisiae (strain ATCC 204508 / S288c)), Q03530. hit rate 0.27% among 290,000;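 active = fall in fluorescence gain of 50% or more versus controls, with final raw signal at or below 3038400; inconclusive = same 50% fall but final raw signal above 3038400; inactive = fall in fluorescence gain under 50%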;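 also: plate controls were neutral control wells for no effect and wells lacking membranes for full effect; tested at 10 µM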
Target sequence (Q03530 whole entry, looked up): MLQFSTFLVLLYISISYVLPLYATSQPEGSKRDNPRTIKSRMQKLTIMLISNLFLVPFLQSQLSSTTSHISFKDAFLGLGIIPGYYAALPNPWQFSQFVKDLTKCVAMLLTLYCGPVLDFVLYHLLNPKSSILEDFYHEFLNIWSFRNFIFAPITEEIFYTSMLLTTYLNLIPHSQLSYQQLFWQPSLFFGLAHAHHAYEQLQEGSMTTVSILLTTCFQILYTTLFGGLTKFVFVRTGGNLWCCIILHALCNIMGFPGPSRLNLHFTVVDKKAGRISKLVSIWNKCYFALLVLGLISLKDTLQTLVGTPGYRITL
eIF4H FP inh retest: also measured in eIF4H FP inh; calls as there; inhibition, %; compound at 20 µM; confirmation average;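 mean of two retest wells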
PABP polyA inh retest: second read-out of PABP polyA inh, no call of its own (marks repeat the call); inhibition, %; compound at 20 µM; confirmation repeats;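 mean of two retest wells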
MT1-MMP act inh RFP: further read-out of MT1-MMP act inh, marked with its call; RFP signal change, %; measured here: RFP expression control read;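 0 = vehicle wells; hits needed this value within 50% of zero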
The depositor's hits bear a star; i = inactive; ? = inconclusive; . = not tested or not shown.

SMILES	PABP polyA inh	Env fusion inh	eIF4H FP inh	Yeast UUG start	CSC inhib	MT1-MMP act inh	MT1-MMP act inh RFP	Rce1 inhib	others
Cc1cc(Cl)ccc1NC(=O)NC1CCN(S(=O)(=O)c2ccc(F)cc2)CC1	-1	14	-4	15	2	0	-8	i
COc1ccc(-c2coc3cc4oc(=O)cc(C)c4cc23)cc1F	8	-89	-13	-12	-11	-7	-4	i
Cc1ccn2c(=O)c(NC(=O)c3ccc4c(c3)OCO4)c(C)nc2c1	.	10	.	-9	.	2	1	.
COCCNC(=O)c1onc(CSc2cccc(OC)c2)c1C(=O)O	5	-4	-1	-14	-16	2	4	i
O=S(=O)(c1ccccc1S(=O)(=O)N1CCCCC1)N1CCCCC1	-4	.	-7	-16	-10	0	0	i
CCCn1c2c(c(O)c(C(=O)Nc3ccccc3)c1=O)CCCC2	-6	.	-3	-18	31	3	4	i
O=C(N/N=C/c1ccncc1)/C(=C/c1ccccc1)NC(=O)c1ccccc1	15	.	0	4	-1	5	1	i
Cc1ccc(Cl)c(OCC(=O)Nc2ccccc2C(=O)NC2CC2)c1	3	.	-6	-1	-9	8	5	i
Cc1cccc(C)c1N1C(=O)[C@@H]2C(c3ccccc3Cl)=NO[C@@H]2C1=O	0	-6	-1	.	-3	2	4	i
Cc1cccc(/N=C/c2c(O)n(Cc3ccc4c(c3)OCO4)c(=O)c3ccccc23)n1	-6	11	-4	.	12	-1	3	i
COc1cccc(C(=O)C2CCCN(Cc3cccn3-c3cccnc3)C2)c1 (configuration not stated)	1.0*	5	81	.	0	0	0	i	eIF4H FP inh retest=13;PABP polyA inh retest=52*
Cc1nc(C(F)(F)F)ccc1C(=O)Nc1ccc(C(F)(F)F)cn1	-13	-15	-12	-11	-3	3	1	i
Cc1ccc(SCCCn2cnc3ccccc3c2=O)cc1	-8	-11	5	-10	.	-3	-5	i
O=[N+]([O-])c1ccccc1CNCCO	.	4	.	-14	-8	7	10	.
CC(=O)Nc1c2c(nn1-c1ccccc1)CSC2	-4	6	-1	-21	-5	1	1	i
O=C(CNc1ccc(Br)cc1)NNC1=NCCC1	0	.	3	-16	1	6	6	i
O=C(Nc1c2c(nn1-c1ccccc1)CS(=O)(=O)C2)C1CC1	.	3	.	-24	.	-1	0	.
OC1(C#Cc2c(-c3ccsc3)oc3ccc(N4CCOCC4)cc23)CCCCC1	.	-46	.	-13	4	6	-1	i
O=C(O)c1cc(-c2ccccc2)c(N2CCOCC2)s1	-7	.	-3	-20	25	-1	-1	i
C[C@H](CO)N1C[C@H](C)[C@@H](CN(C)C(=O)Nc2ccc3c(c2)OCO3)Oc2c(NC(=O)Nc3ccc4c(c3)OCO4)cccc2C1=O	.	14	.	-4	3	-4	2	.
CSc1cccc(NC(=O)CN2C(=O)COc3ccc(S(=O)(=O)N4CCOCC4)cc32)c1	.	-1	.	-6	-1	0	1	i
Clc1ccc(-c2nnc(C34CC5CC(CC(C5)C3)C4)o2)cn1	-1	.	-10	-11	7	1	1	i
COC(=O)c1ccc(NC(=O)C(=O)N2CCN(C(=S)Nc3cccc(C)c3C)CC2)cc1	22	-1	-4	.	-1	-1	-6	i
CCCCC(=O)Nc1cccc(NC(=O)c2ccc3c(c2)OCO3)c1	-4	-33	-6	-15	-15	5	-1	i
Cc1csc(N/N=C\c2cccnc2)n1	-10	-33	-6	.	13	1	1	i

The final 2 compounds of the part before come first, to join the parts.
SMILES	PABP polyA inh	Env fusion inh	eIF4H FP inh	Yeast UUG start	CSC inhib	MT1-MMP act inh	MT1-MMP act inh RFP	Rce1 inhib	others
CCCCC(=O)Nc1cccc(NC(=O)c2ccc3c(c2)OCO3)c1	-4	-33	-6	-15	-15	5	-1	i
Cc1csc(N/N=C\c2cccnc2)n1	-10	-33	-6	.	13	1	1	i
CCCCc1ccc(S(=O)(=O)NC(=O)C2(C)CCN2C(=O)Cc2ccccc2)cc1 (configuration not stated)	.	-15	.	-1	.	2	6	.
C/C(CC1CC(C)(C)OC1=O)=N\NC(N)=S (configuration not stated)	-5	-1	9	-17	-2	3	4	i
O=C(CSc1nnc(C2COc3ccccc3O2)o1)N1CCN(c2ccccc2)CC1 (configuration not stated)	-4	-29	-3	.	-7	1	1	i
Cc1cc(C)n2nc(SCC(=O)NC3CCCCC3C)nc2n1 (configuration not stated)	.	-5	.	-8	-4	0	3	i
COc1ccc(-c2sc3ccc(OC)cc3c2C#CCCO)cc1	6	.	-11	19	99*	-1	0	i
COc1cccc(NC(=O)NNS(=O)(=O)c2ccc(OC)cc2OC)c1	-4	0	-2	-5	-1	0	1	i
COc1ccc(OCCCC(=O)OCC(=O)Nc2sccc2C(N)=O)cc1	.	-3	.	.	-4	0	3	i
CCOc1cc(/C=C2\C(=O)N(CCc3ccc(OC)c(OC)c3)C(C)=C2C(=O)OC)ccc1O	2	15	2	.	13	-3	0	i
O=C(Cc1cccs1)NC1(C(=O)NC2CCCC2)CCCCC1	-15	7	-6	14	-7	1	3	i
COc1ccc(/C=C\C(=O)NCC(=O)N/N=C/c2cccc(OC)c2O)cc1	-2	0	7	-13	37	7	5	i
COC(=O)c1ccc(C2NC(=O)c3c(sc(C)c3C)N2)cc1 (configuration not stated)	6	-3	0	.	-3	-5	-4	i
O=C(Nc1cccc(-c2nc3ccccc3c(=O)o2)c1)c1ccccc1	13	-13	-3	.	5	-1	0	i
CCOC(=O)C1(C)NC(c2cccs2)C2C(=O)N(c3ccc(C)cc3)C(=O)C21 (configuration not stated)	1	-4	-18	.	0	0	4	i
CCOC(=O)c1c(C)[nH]c(C)c1C(=O)CSc1nncs1	-8	-6	4	.	-8	-2	-3	i
Cc1ccc(-n2cnc3c(sc4nccc(N(C)C)c43)c2=O)cc1	15	.	-9	-15	-9	-10	-8	i
COc1ccc(CNC(=O)CNC(=O)c2cccs2)c(OC)c1	1	-5	-9	-6	-4	-1	-2	i
CC(OC(=O)c1ccccn1)C(=O)Nc1ccc2c(c1)OCCO2 (configuration not stated)	.	.	.	-9	-10	-1	3	.
CC(Oc1ccccc1)C(=O)Nc1ccc(S(=O)(=O)N2CCN(C)CC2)cc1 (configuration not stated)	.	-8	.	-11	-15	-1	0	i
CC1(C)Cc2cccc(C(=O)Nc3ccncc3)c2O1	11	10	-2	.	-25	-3	-10	i
COCC(=O)OCC(=O)Nc1ccccc1-c1ccccc1	-7	-3	-1	.	6	-1	0	i
O=C(COC(=O)CCS(=O)(=O)c1ccc(F)cc1)NC1CCCCC1	.	-12	.	-1	.	4	3	.
O=C(Nc1ccc(Cl)cc1)c1nc[nH]c1C(=O)NCc1ccccc1	.	-55	.	-20	21	8	-3	.
Cc1cccc(CSc2ncnc3ccccc23)c1	-20	3	-3	.	.	-2	-1	i
O=C(CCCN1C(=O)c2ccccc2C1=O)NC1=NCCS1	13	-22	3	-5	.	4	4	i
O=C(Cn1cnc2c(nnn2Cc2ccc(Cl)cc2)c1=O)c1ccccc1	-17	-39	-16	-11	-6	4	1	i
SMILES	PABP polyA inh	Env fusion inh	eIF4H FP inh	Yeast UUG start	CSC inhib	MT1-MMP act inh	MT1-MMP act inh RFP	Rce1 inhib	others
COCC1CCCCN1Cc1cn(-c2ccccc2)nc1-c1ccc2c(c1)OCO2 (configuration not stated)	-1	41	-3	.	-3	9	3	i
Cc1c(C(=O)NCc2cccnc2)sc2ncn(CC(=O)N3CCCCC3C)c(=O)c12 (configuration not stated)	-6	.	-4	.	.	0	-1	i
CCOC(=O)C1=C(C)Nc2ccccc2N/C1=N\S(=O)(=O)c1ccc(Cl)cc1	.	12	.	6	.	-2	-1	.
Cc1ccc(CN2CCN(CC(=O)N3CCc4ccccc4C3)C2=O)cc1	10	.	-4	.	-8	.	.	i
Cc1nc2cc(-c3ccc(F)cc3)[nH]n2c(=O)c1C	6	-61	-4	-2	-10	-1	-1	i
CCOC(=O)C(Cc1ccc(O)cc1)NC(=O)CCc1c[nH]c2ccccc12 (configuration not stated)	-4	-3	-7	-12	-7	-3	-3	i
COc1ccc(CC(=O)N2CCN(c3ccccc3)CC2)cc1	-9	8	-3	-5	-3	-4	3	i
N#CCC(=O)Nc1ccc(C(=O)NNC(=O)CCN2CCN(c3ccccc3)CC2)cc1	.	.	.	-6	-4	-1	5	.
Cc1ccc(C(=O)N2CCOCC2)cc1S(=O)(=O)Nc1cccc(C)c1C	8	.	-1	-10	6	-1	-2	i
Cc1ccc(S(=O)(=O)NC2=NCN(C(C)C)CN2)cc1	-1	-9	-2	-7	-8	-1	3	.
CSc1nc(Cl)cc(N2CCOCC2)n1	14	-36	0	.	-24	-1	0	i
CC(=O)c1sc(NC(=O)c2cccc3ccccc23)nc1C	7	.	-10	0	-5	0	-5	i
O=C(CSc1nc2ccccc2[nH]1)Nc1ccc(N2CCOCC2)cc1	2	11	0	-19	-10	1	-4	i
COCCCNC(=O)c1cc(C)nn1-c1ccccc1	8	-1	-5	-10	-2	-1	6	i
O=C(OCc1cn([C@@H]2CN(C(=O)c3cccs3)[C@@H](c3ccccc3)C[C@H]2O)nn1)c1ccccc1	.	-8	.	-4	.	-3	3	.
CCn1c(=O)c2c(n3c(=S)[nH]nc13)-c1ccccc1CC21CCCCC1	?	-5	-6	.	-1	4	-3	.
Cc1ccc(SCc2cc(=O)[nH]c(/N=C(\N)Nc3ccccc3Sc3ccccc3)n2)cc1	1	8	0	.	-9	-2	-5	i
Cc1ncc(CO)c(/C=N/NC(=O)c2ccc(Br)cc2)c1O	6	.	32	.	9	.	.	i

An excerpt from above in order of molar mass, descending.
SMILES	PABP polyA inh	Env fusion inh	eIF4H FP inh	Yeast UUG start	CSC inhib	MT1-MMP act inh	MT1-MMP act inh RFP	Rce1 inhib	others
Cc1cccc(/N=C/c2c(O)n(Cc3ccc4c(c3)OCO4)c(=O)c3ccccc23)n1	-6	11	-4	.	12	-1	3	i
CC(Oc1ccccc1)C(=O)Nc1ccc(S(=O)(=O)N2CCN(C)CC2)cc1 (configuration not stated)	.	-8	.	-11	-15	-1	0	i
O=C(N/N=C/c1ccncc1)/C(=C/c1ccccc1)NC(=O)c1ccccc1	15	.	0	4	-1	5	1	i
O=C(CSc1nc2ccccc2[nH]1)Nc1ccc(N2CCOCC2)cc1	2	11	0	-19	-10	1	-4	i
Cc1ccc(CN2CCN(CC(=O)N3CCc4ccccc4C3)C2=O)cc1	10	.	-4	.	-8	.	.	i
Cc1ccc(-n2cnc3c(sc4nccc(N(C)C)c43)c2=O)cc1	15	.	-9	-15	-9	-10	-8	i
CC(OC(=O)c1ccccn1)C(=O)Nc1ccc2c(c1)OCCO2 (configuration not stated)	.	.	.	-9	-10	-1	3	.
CCCn1c2c(c(O)c(C(=O)Nc3ccccc3)c1=O)CCCC2	-6	.	-3	-18	31	3	4	i
O=C(CNc1ccc(Br)cc1)NNC1=NCCC1	0	.	3	-16	1	6	6	i
O=C(O)c1cc(-c2ccccc2)c(N2CCOCC2)s1	-7	.	-3	-20	25	-1	-1	i
COCCCNC(=O)c1cc(C)nn1-c1ccccc1	8	-1	-5	-10	-2	-1	6	i
